Bioassay records (PubChem)
GLA inh pH 4.5: blocks human alpha-galactosidase A at pH 4.5. P06280. purified enzyme, 4-MU-alpha-Gal fluorescence, pH 4.5. activity change, negative = inhibition, % at 105 µM. 230,000 tested, under 10 active; inconclusive = small, poorly fitted or top-dose-only inhibition, or a rising curve; inactive = flat fitted curve, though single readings scatter; no compound was filed as active;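 further: 0% = full activity with enzyme and -100% = basal without enzyme; dose as in the result columns while the protocol names 77 µM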
Target sequence (P06280 whole entry, looked up): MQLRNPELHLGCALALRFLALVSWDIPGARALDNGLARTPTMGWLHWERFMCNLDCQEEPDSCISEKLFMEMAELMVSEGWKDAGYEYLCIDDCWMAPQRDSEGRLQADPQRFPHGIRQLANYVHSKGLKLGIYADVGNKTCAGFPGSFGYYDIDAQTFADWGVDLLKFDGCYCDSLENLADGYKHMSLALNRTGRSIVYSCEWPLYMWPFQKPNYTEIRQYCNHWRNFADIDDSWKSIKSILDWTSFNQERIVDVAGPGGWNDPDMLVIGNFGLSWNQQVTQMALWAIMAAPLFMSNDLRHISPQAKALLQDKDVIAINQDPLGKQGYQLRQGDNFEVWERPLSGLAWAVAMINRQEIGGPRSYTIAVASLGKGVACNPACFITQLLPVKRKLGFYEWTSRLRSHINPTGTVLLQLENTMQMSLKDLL
miR-21 FLuc: miR-21 reporter, rising signal; 340,000 tested, under 10 active; HeLa miR-21 FLuc reporter, luciferase, 48 h; AID 2288; Potency, µM (doses to about 38.3 µM), for the others: at the top dose reporter change, positive = more light; active = well fitted rising curve with a large enough effect; inconclusive = small, poorly fitted or top-dose-only effect; inactive = no such curve, though single readings can be large or run the other way;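 further: % of control where 0% means no effect; miR-21 action dims this reporter so a rising signal means less miR-21 action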
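Using DMEM plus 10% FBS, HeLa miR-21-FLuc cells are incubated with test compounds (final up to about 40uM) for 48 hours; firefly luciferase signal is then imaged following reagent-mediated lysis.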
Rango complex inh: Rango-importin beta binding inhibition; Potency, µM (highest dose often 92.2 µM), for the others: top-dose inhibition of complex formation; Q14974; Rango CFP/YFP FRET sensor + importin beta, 45 min; AID 540263; 0.031% of 340,000 active; active = rising FRET ratio curve, often small or poorly fitted; inconclusive = mostly compound fluorescence or quenching in the first reads; inactive = flat curves in all reads;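 further: potency means the concentration at half of the fitted maximal effect; 0% = DMSO wells and 100% = buffer wells lacking importin beta; nearly all actives have a fitted effect of over 15% in size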
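FRET biosensor (snurportin 1 IBB flanked by EYFP and cerulean), 50 nM, with compound 5 min, then 0.125 microM importin beta in PBS, 1 mM DTT, 0.02% Tween-20, 0.1% BSA. CFP/YFP ratio read after 45 min at room temperature; pre-read flags interference.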
Rango release inh: inhibitors of RanGTP-induced Rango-importin beta complex dissociation; Potency, µM (doses to about 46.1 µM), for the others: at the highest dose activity change, negative = inhibition; 0.071% of 340,000 active; Biochemical FRET Rango-importin beta, RanGTP-induced dissociation; O95149+P62826; active means falling FRET ratio curve, often poorly fitted, with flat reads before Ran was added; inconclusive means other falling curves, or compound fluorescence or quenching; inactive means flat or rising ratio curve;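 further: potency means the concentration at half of the fitted maximal effect; % of control where 0% means no effect; nearly all actives have a fitted effect of over 45% in size; -100% = wells without RanGTP and RCC1; the record marks most hits as doubtful in a second field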
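Rango (0.1 uM)–importin beta (0.25 uM) complex; RanGTP-RCC1 trigger; 45 min RT; CFP/YFP FRET read.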
* = called active by the depositor; ? = inconclusive; nt = no result given; & = joins results of further samples. Some of the compounds tested, so the mix of outcomes need not match the whole.

SMILES	GLA inh pH 4.5	miR-21 FLuc	Rango complex inh	Rango release inh
O=C(Nc1ccc(Cl)cc1F)C1CCN(S(=O)(=O)c2cccnc2)CC1	0	3%	1.4%	2%
Cc1ccccc1NC(=O)c1ccc2nc(N3CCOCC3)sc2c1	nt	-31%	-2.6%	-2%
Cc1nc([N+](=O)[O-])cn1CC(=O)NCCCO	2	-4%	-4.8%	20%
COC(=O)Cc1c(O)ccn(C2CC2)c1=O	6	1%	2.8%	0%
O=C(CNC(=O)[C@@H]1Cc2ccccc2CN1)Nc1ccc2c(c1)OCO2	nt	-2%	-1.3%	12%
Cc1ccc2c(CC(=O)Nc3sccc3C(N)=O)coc2c1	8	-58%	-1.3%	18%
CCCNC(=O)c1ccc(CNc2c(N3CCC(C(=O)OCC)CC3)c(=O)c2=O)cc1	0	-5%	-0.1%	3%
CC(O)(c1ccccc1)c1ccc2ccccc2n1 (stereo unspecified)	nt	nt	0.9%	-11%
CCOc1ccc(C(=O)NC(C(=O)N2CCC2)C(C)C)cc1 (stereo unspecified)	nt	nt	0.9%	-13%
CO/N=C(/CNC(=O)c1ccc(F)cc1)c1ccc(Cl)cc1	-3	-15%	-0.4%	11%
COc1ccc(-c2cc3ncc(C(C)=O)c(C)n3n2)cc1	-13	-58%	-1.8%	9%
Cc1ccccc1/C(N)=N/OC(=O)c1cccs1	2	-47%	3.2%	8%
COc1ccccc1-c1cc(-c2ccc(C)cc2)nc(SCc2nnc(-c3ccccc3)o2)c1C#N	6	0%	-0.3%	-12%
Cc1cc(/N=C/C=C2/N(C)c3ccccc3C2(C)C)n(CCC#N)n1	nt	nt	-7.3%	-19%
CSc1nn2c(C)c(C)c(C)nc2c1C#N	3	1%	-1.3%	-7%
CC(=O)Nc1ccc(CN2CCN(c3cccc(C(F)(F)F)c3)CC2)cc1	2	-5%	2.3%	26%
Oc1ccccc1/C=N/N1CCN(c2ccccn2)CC1	-12	-52%	0.4%	15%
O=S(=O)(c1ccccc1)N1CCC(n2nnc3cc(F)ccc32)CC1	3	-4%	3.5%	-9%
CC(CCc1ccccn1)C(=O)C(C)CCc1ccccn1 (stereo unspecified)	nt	nt	-0.5%	7%
CSc1ccc(CCNC(=O)CN2C(=O)c3cccnc3Oc3ccc(C)cc32)cc1	nt	15%&11%	0.1%	7%
COCCNC(=O)[C@H]1C[C@@H]1[C@H](NP(=O)(c1ccccc1)c1ccccc1)c1ccccc1	6&4	-11%	0.5%	1%
Cn1cccc1-c1nc2ccc(NC(=O)c3ccco3)cc2[nH]1	-2	-36%	-0.5%	1%
COc1ccc2c(c1)C(c1ccc(Cl)cc1)NC(=O)C2 (stereo unspecified)	nt	nt	0.6%	-19%
CCNc1nc(NCC)nc(C(=O)OCCO)n1	-1	0%	-0.7%	22%
Oc1c(C=Nc2ccc(Cl)cn2)sc2ccccc12	1	-21%	?	?
N#Cc1sc(C(N)=O)c(-c2ccccc2)c1-c1ccccc1	-2	-3%	2.0%	10%
COc1ccc2cc3c(nc2c1)OCC3	nt	-32%	2.0%	34%
O=C(Nc1ccccc1N1CCCCC1)C1=COCCO1	nt	nt	-0.5%	-4%
CCn1cc(/C=C/C(=O)Nc2ccn(Cc3c(F)c(F)cc(F)c3F)n2)cn1	5	-4%	4.8%	13%
O=C(Nc1ccc(-c2n[nH]c(=S)o2)cc1)c1ccccc1Cl	nt	-44%	3.3%	22%

Brought forward from above: 5 entries, followed by the next part.
SMILES	GLA inh pH 4.5	miR-21 FLuc	Rango complex inh	Rango release inh
N#Cc1sc(C(N)=O)c(-c2ccccc2)c1-c1ccccc1	-2	-3%	2.0%	10%
COc1ccc2cc3c(nc2c1)OCC3	nt	-32%	2.0%	34%
O=C(Nc1ccccc1N1CCCCC1)C1=COCCO1	nt	nt	-0.5%	-4%
CCn1cc(/C=C/C(=O)Nc2ccn(Cc3c(F)c(F)cc(F)c3F)n2)cn1	5	-4%	4.8%	13%
O=C(Nc1ccc(-c2n[nH]c(=S)o2)cc1)c1ccccc1Cl	nt	-44%	3.3%	22%
CN(c1cc(=O)n2ccccc2n1)C1CCCCC1	0	-61%	-0.2%	19%
Cn1c(=O)cc(NCc2ccccc2)[nH]c1=O	0	-3%	-2.4%	-1%
COCCN1Cc2cccc(C(=O)NCc3ccc4c(c3)OCO4)c2C1=O	4	-1%	-4.3%	13%
COCCCNC(=O)c1ccc(CS(=O)(=O)c2ccccc2C)o1	nt	0%	-2.3%	0%
COc1ccccc1OCCC(=O)OCC(=O)NCc1ccccc1	1	1%	0.0%	-3%
O=C1c2ccccc2C(Nc2ccc(S(=O)(=O)N3CCCCCC3)cc2)N1Cc1ccco1 (stereo unspecified)	-7	0%	-0.2%	3%
Cc1cc(NC(=O)c2ccccc2Oc2ccccc2)no1	1	-2%	-1.4%	10%
CC(C)CCNc1ncnc2c1cnn2Cc1ccccc1Cl	nt	11%	-0.4%	-2%
CCN(CC(=O)Nc1cccc(S(=O)(=O)N2CCCCC2)c1)Cc1ccccc1	nt	nt	2.7%	7%
CC(C)(C)CN1CCNC(=O)C1CC(=O)NCCN1CCCc2ccccc21 (stereo unspecified)	1	-1%	?	-16%
CN1CCN(NC(=O)/C=C/c2cccc(Cl)c2)CC1	nt	-8%	-0.1%	-7%
CCOC(=O)c1c(NC(=O)c2nn(C)cc2[N+](=O)[O-])sc(C)c1C	6	-4%	-1.8%	-6%
CNc1oc(C)nc1S(=O)(=O)c1ccc(C)cc1	0	4%	6.5%	-5%
COc1cccc(O)c1CN1CCC(C(=O)Nc2ccc(Oc3cccnc3)cc2)CC1	nt	21%	-2.8%	-7%
CN(C)/C=C/c1oc2ccc(O)cc2c1[N+](=O)[O-]	-2	-36%	0.9%	?
CCCn1c(=O)n(C)c(=O)c2c(SCC(=O)NCC(c3ccccc3)N(C)C)nc(CC(C)C)nc21 (stereo unspecified)	nt	5%	0.6%	-3%
O=C(COC(=O)Cc1ccccc1F)Nc1cc(S(=O)(=O)N2CCOCC2)ccc1N1CCCC1	10	-3%	-0.2%	-2%
CCOC(=O)NC(=O)c1cn(N(C)c2ncc(C(F)(F)F)cc2Cl)c(=O)[nH]c1=O	-30	-4%	-3.7%	1%
CCN(CC)S(=O)(=O)c1ccc(OC)c(NC(=O)c2cc(=O)[nH]c3ccccc23)c1	2	-2%	-0.4%	-17%
Nc1c(S(=O)(=O)c2ccccc2)c2nc3ccccc3nc2n1CCN1CCOCC1	?	-5%	?	-5%
CCOC(=O)c1c(C)nn(-c2ccc(NC(=O)c3c(C)noc3C)cc2)c1C	nt	27%	-0.5%	10%
Cc1noc(/C=C/c2cccs2)c1S(=O)(=O)N1CCC(C(=O)NCCCN2CCC(C)CC2)CC1	-12	-16%	-1.1%	-11%
O=C(NNC(=S)Nc1ccccc1)c1ccncc1	4	-24%	-2.9%	1%
CC(=O)N=C1SC2CS(=O)(=O)CC2N1Cc1ccc(C)cc1 (stereo unspecified)	4	-13%	2.5%	-7%
COc1cccc(C(=O)CC(C(=O)O)c2ccc(F)cc2)c1 (stereo unspecified)	1	0%	-0.2%	0%
COc1cc2cc(C)c3nnc(SCC(=O)Nc4cc(C)on4)n3c2cc1OC	4	-1%	-3.4%	10%
Cc1noc(C)c1C(=O)N1CCN(S(=O)(=O)c2cccs2)CC1	nt	nt	-1.4%	-1%
CC(=O)c1c(C)[nH]c(C(=O)OCC(=O)N2c3ccccc3NC(=O)C2(C)C)c1C	1	-3%	10%	-17%
COc1ccc2oc(C(=O)c3ccccc3)c(N)c2c1	1	-67%	?	?
CCOC(=O)NC(=O)/C(C=Nc1ccc(Cl)cc1)=C(\C)O	4	-6%	-2.4%	-13%
COc1cc(C(=O)OCc2nc3ccsc3c(=O)[nH]2)c([N+](=O)[O-])cc1OC	nt	nt	0.3%	-19%
Nc1nc2ccccc2n1Cc1ccc(Cl)c(Cl)c1	nt	21%	-5.2%	1%
Cc1cc([N+](=O)[O-])nn1CCCC(=O)Nc1ccc2c(c1)OCO2	nt	-9%	-4.7%	-10%
Cc1nc(NCc2ccco2)nc2c1C(=O)CC(C)C2 (stereo unspecified)	-3	-7%	-5.9%	-5%
O=C(O)/C=C/C(=O)NCc1ccccn1	0	-1%	-4.0%	-4%
CCOc1ccc(C(C(=O)NC2CCCCC2)N(C(=O)c2csnn2)C2CC2)cc1 (stereo unspecified)	nt	0%	-3.1%	4%
O=C(Nc1ccccc1)OC1CCC2CC1CCC2OC(=O)Nc1ccccc1 (stereo unspecified)	5	24%	?	-14%
CNS(=O)(=O)c1cccc(C(=O)OCC(=O)Nc2nc(OC)cc(OC)n2)c1	nt	nt	?	8%
Cc1cc2nc(C)n(CCCNC(=O)Nc3ccc(C#N)cc3)c2cc1C	1	-2%	-0.6%	2%
O=C(C1CCCCC1)N1CCN(c2ccnc3cc(Cl)ccc23)CC1	-1	?	0.4%	-7%
COc1cc(CN2CC(=O)N(c3ccc(C)c(Cl)c3)C2=S)cc(OC)c1OC	nt	-1%	0.3%	10%
COc1ccc(C(=O)Nc2nnc(SCC(=O)NC3CCCC3)s2)c(OC)c1	nt	-60%	-0.8%	-4%
CCOC(=O)[C@@H]1[C@H]2COc3ccc(Br)cc3[C@H]2N2C(=O)N(c3ccc(F)cc3)C(=O)[C@]12C	nt	8%	0.0%	11%
Cc1cc(C)c(S(=O)(=O)N2CCCOC2CNC(=O)C(=O)NCc2cccnc2)c(C)c1 (stereo unspecified)	-1	-2%	-2.8%	6%
C/C(=N\NC(=O)c1ccc(Cl)c(Cl)c1)c1ccc(Br)s1	5	-3%	0.1%	1%
CC1CC(C)CN(C(=O)C(NS(=O)(=O)c2ccc(Br)s2)c2ccccc2)C1 (stereo unspecified)	-12	7%	1.5%	25%
CSc1ncnc2c1cnn2-c1ccc(C)cc1C	11	-35%	-4.1%	0%
Cn1c(=O)c2c(nc(CN3CCc4ccccc4C3)n2Cc2ccccc2)n(C)c1=O	0	-7%	3.0%	-2%
C=CCNc1oc(-c2cccc(F)c2)nc1C#N	nt	nt	1.3%	14%
CCOc1ccccc1NC(=S)NC(=O)c1ccco1	nt	-8%	-3.7%	11%
NS(=O)(=O)c1ccc(CCN=C(NS(=O)(=O)c2cccs2)c2ccccc2)cc1	0	0%	4.8%	0%
CSCCC(=O)N1CCC(n2nccc2NC(=O)CCCc2ccccc2)CC1	nt	-18%	?	-11%
O=C(Nc1ccccc1)Nc1cccc(C(F)(F)F)c1	-7	10%	-1.8%	-19%
CCOC(=O)N1CCN(C(=O)c2c(O)c3cccc4c3n(c2=O)CC4)CC1	-3	-1%	3.5%	-5%
CCN(CC)CCCNc1nc2ccccc2c2[nH]c3ccc(OC)cc3c12	nt	nt	9.9%	3%
Cc1nc(N[C@@H](Cc2c[nH]c3ccccc23)C(=O)O)c2oc3ccccc3c2n1	-3	6%	-1.1%	-21%
CC(=O)c1ccc(N2CCN(S(=O)(=O)c3c(C)[nH]c(C)c3C(=O)N3CCCC3)CC2)cc1	nt	-10%	-5.3%	-3%
COCCCNC(=O)Cn1ccc(N)nc1=O	nt	nt	-2.5%	-3%
O=C(CSc1nnc(-c2ccncc2)o1)Nc1nncs1	nt	-1%	-0.4%	-9%
CCN(CC)C(=O)CC(c1ccc(F)cc1)c1ccc(OC(C)C)cc1 (stereo unspecified)	-8	12%	nt	nt
Continuation:
SMILES	GLA inh pH 4.5	miR-21 FLuc	Rango complex inh	Rango release inh
CCn1nc(C)c(CN2CCCC(CNS(=O)(=O)c3ccc(OC)cc3)C2)c1C (stereo unspecified)	nt	1%	-1.8%	-7%
COc1cc(C2C(C#N)=C(N)N(c3sc4c(c3C#N)CCCC4)C3=C2C(=O)CC(C)(C)C3)cc(OC)c1OC (stereo unspecified)	1	-1%	?	?
O=C(Nc1ccc2c(c1)OCO2)c1ccccc1	nt	-40%	0.2%	-22%
CC1(C)CC(NC(=O)C2CCN(S(=O)(=O)c3ccccc3C(F)(F)F)CC2)CC(C)(C)N1	nt	-7%	-2.0%	-10%
Cc1ccc(-n2nc3c(=O)n(CC(=O)NCCC4=CCCCC4)nc(C)c3c2C)cc1	nt	0%	-0.1%	-3%
[NH-]c1ncnc2c1N=C[N+]2=CC=CCO	-2	-3%	-2.5%	?
